AID504770: growth inhibitors of E. coli YBA685 in a screen for V. cholerae RctB (chromosome II replication) inhibitors; E. coli YBA685 rctB-dependent plasmid, OD600 growth, 3 h; hits give low values; z-score (test concentration not listed); 130,000 tested, 0.27% active; AID 504770;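 active = z-score under -2 on both plates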;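 also: wells of about 30 µL received 100 nL stock; score is relative to mean and SD of the test wells; the first replicate is given; strong numbers were not always called active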
Ba CapD inh: CapD enzyme inhibition. purified CapD enzyme, fluorescence intensity read-out; hits give low values; some hits fall short of the stated cut. z-score (test concentration not listed). 140,000 tested, 0.23% active. AID 492967;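 active = z-score under -4 in either of two replicates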;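 also: stock transfer was 100 nL into about 40 µL; score is relative to mean and spread of the plate; one replicate is shown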
* = called active by the depositor; i = inactive; . = not tested or not shown.

The opening five compounds (preview)
Each structure is followed by: AID504770	Ba CapD inh
1	CC(=O)Nc1ccccc1OC(C)C(=O)N1CC(C)CC(C)C1 (configuration not stated)
  1.5	.
2	O=C(NCC1CC1)c1cc(Br)cc(Br)c1O
  -0.1	3.3
3	CC(C)(C)c1ccc(-c2nnco2)cc1
  -0.9	-0.05
4	Cn1nc(-c2ccccc2)c(COC(=O)Nc2ccc(Cl)cc2)c1Cl
  .	-0.065
5	CC1CC(C)(C)N(C=O)c2ccccc21 (configuration not stated)
  -1.1	-0.07

Results (from the top)
Each structure is followed by: AID504770	Ba CapD inh
1	CC(=O)Nc1ccccc1OC(C)C(=O)N1CC(C)CC(C)C1 (configuration not stated)
  1.5	.
2	O=C(NCC1CC1)c1cc(Br)cc(Br)c1O
  -0.1	3.3
3	CC(C)(C)c1ccc(-c2nnco2)cc1
  -0.9	-0.05
4	Cn1nc(-c2ccccc2)c(COC(=O)Nc2ccc(Cl)cc2)c1Cl
  .	-0.065
5	CC1CC(C)(C)N(C=O)c2ccccc21 (configuration not stated)
  -1.1	-0.07
6	COc1c(C(=O)O)csc1Cl
  -0.85	-0.4
7	CC(C)CC(=O)NC1(C(F)(F)F)N=C2SCCN2C1=O (configuration not stated)
  1.1	-0.42
8	O=C(Nc1cccnc1)C1c2ccccc2Oc2ccccc21
  -1.1	-0.85
9	O=C(CN1C(=O)C2C3C=CC(C3)C2C1=O)NCC1(N2CCCCC2)CCCCC1 (configuration not stated)
  1.1	.
10	Cc1ccccc1/C=c1/sc2n(c1=O)C(N)=C(C#N)C(c1ccccc1C)C=2C#N (configuration not stated)
  .	0.16
11	CC(C)N=C(N)CCn1cnc2c1c(=O)n(C)c(=O)n2C
  -0.3	0.39
12	Cc1ccc(C(=O)NCc2csc(-c3cccs3)n2)cc1C
  0.3	9.3
13	Cn1ccc2c(OCC(=O)c3ccccc3)cccc2c1=O
  0.5	.
14	CC(=O)Nc1ccc(NC(=O)Nc2ccccc2)cc1
  0.05	0.99
15	Cc1ccc(C)c(NS(=O)(=O)c2cc3c(c([N+](=O)[O-])c2)-c2c(cc(S(=O)(=O)Nc4cc(C)ccc4C)cc2[N+](=O)[O-])C3=O)c1
  .	-0.24
16	O=C(NCc1cccs1)c1ccc(N2CC3CC(C2)c2cccc(=O)n2C3)c(NC(=O)c2ccc(Br)o2)c1 (configuration not stated)
  .	0.49
17	CCOC(=O)CC1(c2ccccc2)SC(NC(C)=O)=NN1C(C)=O (configuration not stated)
  -0.25	0.36
18	C=CCNC(=O)CN1CCC(O)(c2ccccc2F)CC1
  0.55	.
19	CN(Cc1cccs1)c1cc(=O)n2cc(Cl)ccc2n1
  -0.85	.
20	O=C(O)CCCNc1ccccc1C(=O)O
  0.85	109
21	CCOc1ccc(Br)cc1NC1CCCCC1COC(=O)N1CCN(c2cccc3[nH]ccc23)CC1 (configuration not stated)
  .	0.83
22	O=C(Nc1ccc(Cl)cc1)c1ccn[nH]1
  -0.9	-0.085
23	CC(c1ccccc1)c1nnc(NC(=O)c2ccc3c(c2)OCO3)s1 (configuration not stated)
  0.2	0.83
24	CCn1c(NCc2c[nH]c3ccccc23)nc2ccccc21
  -0.6	-0.045
25	O=C(c1cccc(C(F)(F)F)c1)c1c[nH]c(C(=O)NCc2ccccc2)c1
  .	0.33
26	CC(C)(C)OC(=O)N1Cc2ccccc2CC1C(=O)NCCN1CCCCC1 (configuration not stated)
  -0.35	0.09
27	C/C=C\C(=O)Nc1cc(-c2cn3cccnc3n2)ccc1C
  -0.05	.
28	CCOC(=O)c1c(NC(C)=O)c2c3c(sc2n1Cc1ccc(F)cc1Cl)CCCC3
  0.3	0.41
29	CN1C(=O)/C(=C/c2cn(CC(=O)N3CCOCC3)c3ccccc23)c2ccccc21
  0.2	.
30	CN(C)c1ccc(C(=O)OCC(=O)N(C2CCCCC2)C2CCCCC2)cc1
  0.4	.
31	CCOC(=O)CSc1nc2cc(C(=O)N3CCC(C(N)=O)CC3)ccc2c(=O)n1C1CCCCC1
  .	0.05
32	Cc1ccc(-c2nc(C3CCN(S(=O)(=O)c4ccc(C(C)(C)C)cc4)CC3)no2)cc1
  0.05	0.15
33	Cc1ccc(Oc2ccccc2/C=C/C(=O)O)cc1
  -0.15	1.1
34	CCCCCC(=O)n1c2ccc(F)cc2c2nc3ccccc3nc21
  .	0.27
35	C=CCn1c(=NC(=O)CSC(C)=O)sc2ccccc21
  -0.9	0.53
36	OC(COCCC12CC3CC(CC(C3)C1)C2)CN1CCCC1 (configuration not stated)
  -0.7	-0.8
37	COc1ccc(-c2cnc(N3CCN(C(c4ccccc4)c4ccccc4)CC3)nc2)cc1
  .	1.2
38	FC(F)(F)c1cnc2c(-c3cccs3)c(-c3ncn[nH]3)sc2c1
  .	44
39	O=c1nc(NCCO)ccn1-c1nc(-c2ccccc2)sc1-c1ccccc1
  -0.2	39
40	O=C(CCc1c[nH]c2ccccc12)N1CCN(C(c2ccccc2)c2ccccc2)CC1
  .	0.02
41	Cc1cc(C)c2oc(-c3cc(N)cc(C)c3O)nc2c1
  -0.4	-0.045
42	CN(C)c1ccc(/C=N/NC(=O)C2SCCCS2)cc1
  -0.45	.
43	O=C1c2[nH]nc(-c3ccccc3)c2C(c2ccc(O)cc2)N1c1ccccc1 (configuration not stated)
  .	-0.24
44	COc1cccc(-c2cc(C(F)(F)F)nc(-n3cc(C)c(=O)[nH]c3=O)n2)c1
  -2.2	0.12
45	CCC(=O)Nc1ccc(C(=O)Cn2c(=O)oc3ccccc32)cc1
  0.6	.
46	CCOC(=O)c1c(C)n(C2CCCCC2)c2ccc(OCC(N)=O)cc12
  -0.3	.
47	Cc1ccc(NC(=S)NCc2ccncc2)cc1
  .	0.25
48	C=CCNc1nnc(Cl)c2ccccc12
  -0.75	.
49	O=CN1CCN(C(=O)c2ccc(F)cc2)CC1
  -0.35	.
50	COC(=O)c1sc2ccccc2c1C(=O)OC
  -0.4	0.14
51	O=C(CSc1nc2c(oc3ccccc32)c(=O)n1-c1ccccc1)Nc1ccccc1
  -0.35	-0.84
52	COCCNC(=O)Cc1c[nH]c2c(F)c(F)c(F)c(F)c12
  .	-0.23
53	Cc1ccc(S(=O)(=O)c2nnn3c2nc(N2CCCC2)c2ccccc23)cc1
  0.05	-0.33
54	CC(NC(=O)COc1ccccc1)C(c1ccccc1)N1CCN(C)CC1 (configuration not stated)
  0.45	-0.035
55	CCNC(=S)Nc1ccc(C)cc1
  -0.75	.
56	CCNC(=O)NC1(C(=O)N2CCC(Cc3ccccc3)CC2)CCCCC1
  -0.9	.
57	CC(C)(C)NC(=S)NCc1ccc2c(c1)OCO2
  1.7	.
58	COc1cc(OC)nc(CSc2ccc(NC(=O)Nc3ccccc3C(F)(F)F)cc2)n1
  .	-0.27
59	CN1CCN(c2nc3c(c(=O)n(C)c(=O)n3C)n2Cc2cccc(Br)c2)CC1
  .	-0.17
60	CCN(CC)C(=O)c1cc2sccc2n1Cc1ccc(F)cc1
  -0.05	.

(cont.)
Each structure is followed by: AID504770	Ba CapD inh
61	CCC(=O)NCC(c1ccco1)N1CCc2ccccc21 (configuration not stated)
  -2.3	.
62	Clc1nc(NCCN2CCOCC2)nc(Nc2ccc(I)cc2)n1
  -0.4	0.77
63	CCOc1ccccc1NC(=O)c1cccc(Cl)c1
  0.4	0.22
64	CN(C)CCC(c1ccc(Br)cc1)c1ccccn1 (configuration not stated)
  0.75	-0.23
65	O=C(CN(Cc1ccco1)C(=O)/C=C/c1ccco1)Nc1ccccc1Br
  1.2	.
66	CCc1ccc(/C(N)=N/O)cc1
  -0.5	.
67	CCCCc1ccc(-c2nc3ccccc3c(=O)o2)cc1
  0.1	0.36
68	CC1CCCC(C)N1C(=O)c1ccccc1C(=O)O (configuration not stated)
  0.75	-0.095
69	COC(=O)CSc1nc(-c2cccs2)ccc1C#N
  1.9	47
70	CCOC(=O)COc1ccc2c(c1)C(=O)CC1(CCCCC1)O2
  -0.9	43
71	COc1ccc(OC)c(C2CC(c3ccc(C)cc3)=NN2C(=O)CCCC(=O)O)c1 (configuration not stated)
  .	-1.1
72	Oc1c(CN2CCN(c3ncccn3)CC2)cc(Cl)c2ccccc12
  -0.05	.
73	O=C(Nc1cc(C(F)(F)F)ccc1Cl)C1COc2ccccc2O1 (configuration not stated)
  .	-0.17
74	CCOC(=O)N1CCN(C(=O)c2cn(-c3ccc(OCC)cc3)c(=O)c3cc(OC)c(OC)cc23)CC1
  0.45	1.5
75	CCCCCC(C)C(C)c1cc(OCCCCN2CCOCC2)c2c(c1)OC(C)(C)C1=C2CCC1 (configuration not stated)
  .	1.1

Shown as a markdown table: 4 of the compounds above.
| nr | SMILES | AID504770 | Ba CapD inh |
| --- | --- | --- | --- |
| 25 | O=C(c1cccc(C(F)(F)F)c1)c1c[nH]c(C(=O)NCc2ccccc2)c1 | . | 0.33 |
| 26 | CC(C)(C)OC(=O)N1Cc2ccccc2CC1C(=O)NCCN1CCCCC1 (configuration not stated) | -0.35 | 0.09 |
| 27 | C/C=C\C(=O)Nc1cc(-c2cn3cccnc3n2)ccc1C | -0.05 | . |
| 28 | CCOC(=O)c1c(NC(C)=O)c2c3c(sc2n1Cc1ccc(F)cc1Cl)CCCC3 | 0.3 | 0.41 |

Along the list, as entered above:
Nos. 39 to 49 in AID504770, in turn: -0.2, ., -0.4, -0.45, ., -2.2, 0.6, -0.3, ., -0.75, -0.35

The list continues.
Each structure is followed by: AID504770	Ba CapD inh
76	CCN(CC)C(=O)C1CCCN(Cc2cc(Br)c(O)c(OC)c2)C1 (configuration not stated)
  0	-0.06
77	COC(=O)c1cc2occc2n1CC(=O)Nc1ccccc1OC
  2	-0.41
78	COc1ccc(S(=O)(=O)NCc2cccn2Cc2ccc(Cl)cc2)cc1
  -0.45	0.53
79	NS(=O)(=O)c1ccc(Nc2nncc(=O)[nH]2)cc1
  0.05	.
80	O=S(=O)(Nc1ccc(-n2ccc(C(F)(F)F)n2)cc1)c1ccc(Cl)cc1
  .	-0.48
81	O=S(=O)(/C=C/c1ccccc1)Nc1cc(Cl)ccc1-n1cncn1
  1.4	.
82	CN1/C(=C/C2CC(=O)NC2=O)C(C)(C)c2ccccc21 (configuration not stated)
  0.65	0.025
83	CCCCCC(=O)N1CCN(CCn2c(C)c3c(=O)n(-c4nc5ccccc5s4)[nH]c3cc2=O)CC1
  -0.45	0.085
84	CC1CCCC(C)N1C(=O)c1cc(-c2ccc(F)cc2)on1 (configuration not stated)
  -0.5	-0.29
85	CC1CCc2cc(F)ccc2N1C(=O)CCN1C(=O)c2ccccc2S1(=O)=O (configuration not stated)
  1.4	.
86	O=C1CC(c2c[nH]c3ccccc23)C(=O)N1c1ccccc1O (configuration not stated)
  1.5	-0.26
87	Cc1ccccc1N1C=NC(=O)/C1=C\c1cccs1
  1.5	.
88	CCn1cc(C(=O)OCC(=O)NCc2ccco2)c(=O)c2ccc(C)nc21
  -0.45	.
89	COc1ccccc1CNCC(O)Cn1c2ccccc2c2ccccc21 (configuration not stated)
  0.15	13
90	O=C(COC(=O)c1cc(C(F)(F)F)cc(C(F)(F)F)c1)NC1CC1
  -0.4	-0.62
91	CC1CC(NS(=O)(=O)c2cccs2)CC(C)(C)C1 (configuration not stated)
  1.6	.
92	CC1Cn2c(C(=O)Nc3ccc(Cl)cc3)cc3cccc(c32)S1 (configuration not stated)
  0.85	17
93	CCCCCCCc1ccc(C(=O)Nc2ccc(Sc3nccc(C)n3)cc2)cc1
  .	-0.72
94	CC(=O)Nc1nnc(CC(C)(C)C)s1
  0.2	.
95	O=C(CN1CCN(CCOCCO)CC1)N1c2ccccc2Sc2ccc(Cl)cc21
  .	-0.08
96	Cc1ccccc1-c1nc(CN2CCCC(C(=O)O)C2)c(C)o1 (configuration not stated)
  -0.25	-0.9
97	Cc1ccc(Nc2nc(Cl)nc(N3CCOCC3)n2)cc1Cl
  .	1.1
98	CC(C)(C)NC(=O)c1ccc2c3c(onc13)-c1ccccc1C2=O
  1.9	2.5
99	CC(=O)Nc1ccc(-n2c(N)c(C(=O)NC3CCCC3)c3nc4ccccc4nc32)cc1
  -0.5	.
100	COc1cccc(NC(=O)C(C)N(c2ccccc2)S(C)(=O)=O)c1 (configuration not stated)
  -0.35	-0.77
101	N#CC(=C1CCCC1)c1nc(-c2ccccc2)cs1
  2.2	-0.67
102	O=C(/C=C/c1ccco1)CC1(O)C(=O)N(Cc2ccccc2Cl)c2ccccc21 (configuration not stated)
  0.15	-1.5
103	O=C(O)CC1SC2=NCCN2C1=O (configuration not stated)
  -0.85	.
104	CC1CC(C)CN(CC(C)(C)NS(=O)(=O)c2ccccc2)C1 (configuration not stated)
  -1.1	-0.49
105	CC(=O)SCC(=O)N=c1sc2ccccc2n1C
  0.65	-0.6
106	CC1CCCC(C)N1CCNC(=O)C1C2C=CC3(CN(Cc4ccccc4Cl)C(=O)C13)O2 (configuration not stated)
  -0.8	0.29
107	CC(C)C12CCC(C(=O)O)C(C1)C(=O)O2 (configuration not stated)
  .	-0.14
108	CC(C)Cn1cc(NC(=O)N2CCCc3ccccc32)c2ccccc2c1=O
  -0.2	16
109	CCOC(=O)C1CCN(C(=O)c2cc(-c3ccc(C)cc3)nc3ccccc23)CC1
  0.3	4.2
110	COc1ccc(N=C2NC(=O)C(Cc3ccc(C)cc3)S2)cc1 (configuration not stated)
  -0.25	i
111	Cc1[nH]c(C)c2c(=O)n(C)ncc12
  0.25	8.2
112	O=C(NNC(=O)c1ccc(Br)cc1)NC1CCCCC1
  0.25	.
113	N=C1S/C(=C\c2cc3c(cc2Cl)OCO3)C(=O)N1c1nccs1
  .	-0.055
114	Cc1ccc2c(CC(=O)OC3CCOC3=O)coc2c1 (configuration not stated)
  0.15	.
115	COCC(=O)Nc1ccccc1C(C)C
  -0.75	0.3
116	COc1ccc(C2C3=C(CC(C)(C)CC3=O)Nc3cc(OC)c(OC)cc32)cc1 (configuration not stated)
  0	44
117	COc1ccccc1Nc1nc(NCc2ccco2)c2ccccc2n1
  .	9.5
118	COCCn1c(=O)[nH]c2cc(C(=O)NCc3ccc(OC(F)(F)F)cc3)ccc21
  -1.2	.
119	O=C(NCc1cccnc1)c1ccc2c(c1)[nH]c(=S)n1c3ccccc3nc21
  .	-0.52

Screening data deposited in PubChem by ICCB-Longwood Screening Facility, Harvard Medical School.

The list is partial; rates above refer to the full screens.
